Screening data as filed in PubChem.
HPGD block = HPGD (human) dehydrogenase inhibition | purified HPGD, NADH fluorescence kinetic, PGE2 substrate | Potency, µM, for the others: at the top dose activity change, negative = inhibition, most hits filed as inhibitors | P15428 | 150,000 compounds, 4.3% hits; active = well fitted inhibition curve with a large enough effect (not every such curve was filed as active); inconclusive = small, poorly fitted or top-dose-only effect, or another doubt; inactive = no such curve, though single readings can be large or run the other way;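 note: top concentration of the series not given in the record; plate controls included wells without enzyme; inactives centre near -10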
Target sequence (P15428 whole entry, looked up): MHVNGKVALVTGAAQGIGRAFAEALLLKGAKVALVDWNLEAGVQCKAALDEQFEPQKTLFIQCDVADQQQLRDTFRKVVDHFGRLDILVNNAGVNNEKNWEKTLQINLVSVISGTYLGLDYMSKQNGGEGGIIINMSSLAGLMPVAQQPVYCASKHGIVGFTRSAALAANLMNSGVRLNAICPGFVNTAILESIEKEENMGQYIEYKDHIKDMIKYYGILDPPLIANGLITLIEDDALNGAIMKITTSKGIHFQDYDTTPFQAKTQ
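20 nM HPGD preincubated 15 min at room temperature with compound in 50 mM Tris-HCl pH 8, 0.01% Tween 20. Started with 1 mM NAD+ and 30 uM prostaglandin E2; NADH fluorescence (360/450 nm) read 5 times over 30-s intervals, last minus first.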
The depositor's hits bear a star; ? = inconclusive; & = joins results of further samples. % is set by controls: 0 for no effect and ±100 for the full control effect; potency is the fitted concentration of half-maximal effect.

Start of the listing, in advance (2 entries):
SMILES | HPGD block
COCCOc1cc(Nc2nnc(C(F)(F)F)s2)c(Cl)cc1Cl | ?
Cc1cccc(NS(=O)(=O)c2cccs2)n1 | ?

Results, from the start:
SMILES | HPGD block
COCCOc1cc(Nc2nnc(C(F)(F)F)s2)c(Cl)cc1Cl | ?
Cc1cccc(NS(=O)(=O)c2cccs2)n1 | ?
O=C(COC(=O)c1n[nH]c2ccccc12)NC(=O)NCc1ccco1 | ?
CCCCOC(=O)Cn1c(=N)n(CCC)c2ccccc21 | -11%
N#Cc1cccc(NC(=O)N2CC[C@@]3(CCCN(S(=O)(=O)c4ccccc4)C3)C2)c1 | -6%
COC(=O)N/N=C/c1cn(Cc2ccccc2Cl)c2ccccc12 | -11%
CCc1ccc(OCC(=O)Nc2ccc(-c3nc4ccccc4o3)c(O)c2)cc1 | ?
COc1cc2cc(CN(Cc3cccs3)C(=S)Nc3ccccc3)c(=O)[nH]c2cc1OC | -25%
CCCc1nc2ccccc2[nH]1 | -11%
CCC(c1nnnn1Cc1ccco1)N(Cc1cc2cc(C)cc(C)c2[nH]c1=O)CC1CCCO1 (stereo not given) | -15%
CN(C)S(=O)(=O)c1ccc(NC(=O)/C=C/c2ccccc2Cl)cc1 | -9%
CC(=O)Nc1cccc(NC(=O)c2ccco2)c1 | -16%
COc1ccc2cc(S(=O)(=O)N3CCOCC3)ccc2c1 | -17%
CCCSc1nc(C)cc(=O)[nH]1 | -3%
O=C(CSc1ncn[nH]1)N1N=C2/C(=C/c3ccco3)CCCC2C1c1ccco1 (stereo not given) | -27%
COC(=O)[C@@]1(Cc2ccc(F)cc2)[C@H]2c3cc(C(=O)N4CCCC4)n(Cc4ccc(C)o4)c3C[C@H]2CN1C(=O)c1ccccc1 | 22µM*
COc1cc2c(C(=O)NCc3ccccn3)cn(CC(C)C)c(=O)c2cc1OC | -10%
Cc1cc(OCC(=O)N(C)C)c2c(-c3ccccc3)cc(=O)oc2c1 | -18%
O=C1c2ccccc2NC(c2ccc(O)cc2)N1/N=C/c1ccc(O)cc1 (stereo not given) | -10%
CCc1ccc(Nc2ccc(C(N)=O)cc2[N+](=O)[O-])cc1 | -15%
CCN(CC)S(=O)(=O)c1cccc(C(=O)OCc2cc(=O)n3nc(C)sc3n2)c1 | -14%
O=C(N/N=C/c1ccncc1)c1cccc(NC(=O)c2ccccc2Cl)c1 | -16%
O=C(CSCc1ccc(Cl)cc1)c1ccco1 | 22µM*
CCN(C(=O)c1cn(C)c(=O)c2cc(OC)c(OC)cc12)c1ccccc1C | -10%
CNC(=O)n1ccc(C(=O)N2CCCCC2)n1 | -22%
CC(C)c1ccc(S(=O)(=O)c2cn(Cc3ccc(F)cc3)c3cc4c(cc3c2=O)OCO4)cc1 | -18%
O=C(CCCCn1c(=O)[nH]c2ccsc2c1=O)NCC1CCCO1 (stereo not given) | 25µM*
Cc1noc(C)c1C(=O)NC(C)C1CCCO1 (stereo not given) | -6%
CCOC(=O)C1=C(CSc2nc(-c3ccncc3)ccc2C#N)OC(N)=C(C#N)C1c1cccnc1 (stereo not given) | -11%
CCOc1ccc(NC(C)c2cc(Cl)ccc2O)cc1 (stereo not given) | -22%
CCOC(=O)c1[nH]c2ccc(OC)cc2c1NC(=O)CCN1CCN(Cc2ccccc2)CC1 | ?
O=C(c1ccc(=O)[nH]c1)N(Cc1ccco1)C1(C(=O)NC2CCCC2)CCCCC1 | -8%
COC(=O)c1sc(NC(=O)/C=C/c2ccc(C)cc2)nc1C | ?
CC(Sc1n[nH]c(N)n1)c1nc2scc(-c3cccs3)c2c(=O)[nH]1 (stereo not given) | -20%
Nc1cc2c(nc3c4ccccc4c(N)cc3[n+]2-c2cccc3ccccc23)c2ccccc12 (tested in a mixture with another compound) | -11%
CCOc1ccc(-c2ccc(/C=C3/C(=N)N4C(C)=CSC4=NC3=O)o2)c([N+](=O)[O-])c1 | ?
CC(SCC(=O)NC12CC3CC(CC(C3)C1)C2)C(=O)O (stereo not given) | -6%
COc1ccc(Cn2nnnc2CN(Cc2cc3cccc(C)c3[nH]c2=O)C2CCCC2)cc1 | -16%
O=C(Cn1cnc2c(cnn2-c2ccccc2)c1=O)NC1CCCC1 | -10%
CCOC(=O)c1c(C)nc2sc(C(=O)Nc3ccc(C(C)=O)cc3)c(N)c2c1-c1ccc(OC)cc1 | ?

Copied from above (21 entries):
SMILES | HPGD block
COCCOc1cc(Nc2nnc(C(F)(F)F)s2)c(Cl)cc1Cl | ?
Cc1cccc(NS(=O)(=O)c2cccs2)n1 | ?
O=C(COC(=O)c1n[nH]c2ccccc12)NC(=O)NCc1ccco1 | ?
CCCCOC(=O)Cn1c(=N)n(CCC)c2ccccc21 | -11%
N#Cc1cccc(NC(=O)N2CC[C@@]3(CCCN(S(=O)(=O)c4ccccc4)C3)C2)c1 | -6%
COC(=O)N/N=C/c1cn(Cc2ccccc2Cl)c2ccccc12 | -11%
CCc1ccc(OCC(=O)Nc2ccc(-c3nc4ccccc4o3)c(O)c2)cc1 | ?
COc1cc2cc(CN(Cc3cccs3)C(=S)Nc3ccccc3)c(=O)[nH]c2cc1OC | -25%
CCCc1nc2ccccc2[nH]1 | -11%
CCC(c1nnnn1Cc1ccco1)N(Cc1cc2cc(C)cc(C)c2[nH]c1=O)CC1CCCO1 (stereo not given) | -15%
CN(C)S(=O)(=O)c1ccc(NC(=O)/C=C/c2ccccc2Cl)cc1 | -9%
CC(=O)Nc1cccc(NC(=O)c2ccco2)c1 | -16%
COc1ccc2cc(S(=O)(=O)N3CCOCC3)ccc2c1 | -17%
CCCSc1nc(C)cc(=O)[nH]1 | -3%
O=C(CSc1ncn[nH]1)N1N=C2/C(=C/c3ccco3)CCCC2C1c1ccco1 (stereo not given) | -27%
COC(=O)[C@@]1(Cc2ccc(F)cc2)[C@H]2c3cc(C(=O)N4CCCC4)n(Cc4ccc(C)o4)c3C[C@H]2CN1C(=O)c1ccccc1 | 22µM*
COc1cc2c(C(=O)NCc3ccccn3)cn(CC(C)C)c(=O)c2cc1OC | -10%
Cc1cc(OCC(=O)N(C)C)c2c(-c3ccccc3)cc(=O)oc2c1 | -18%
O=C1c2ccccc2NC(c2ccc(O)cc2)N1/N=C/c1ccc(O)cc1 (stereo not given) | -10%
CCc1ccc(Nc2ccc(C(N)=O)cc2[N+](=O)[O-])cc1 | -15%
CCN(CC)S(=O)(=O)c1cccc(C(=O)OCc2cc(=O)n3nc(C)sc3n2)c1 | -14%

(list continues)
SMILES | HPGD block
Cc1cc(NC(=O)c2cnccn2)no1 | 1%
COc1ccc(C2CC(c3ccco3)n3ncnc3N2)cc1 (stereo not given) | -3%
COCCNC(=O)c1ccc(NC(C)=O)cc1 | 20µM*
COCCCNC(=O)c1cc2c(s1)CS(=O)(=O)C2 | -10%
O=C(O)C(F)(F)C(F)(F)C(F)(F)C(F)(F)C(=O)O | -11%
COc1ccccc1CN1CCCC2(CCN(C(=O)c3ccco3)CC2)C1 | -3%
CC1(C)CC(=O)c2c(noc2-c2ccccc2)C1 | 22µM*
N#CC1(C#N)CC(C=O)=C(N)C1(C#N)CC(=O)C12CC3CC(CC(C3)C1)C2 (stereo not given) | -2%
O=c1[nH]cnc2c1ncn2[C@H]1CC[C@@H](CO)O1 | -1%&-11%
Cc1cc(C)c2c(-n3cccc3)n[nH]c2n1 | -5%
Cc1ccc(-n2nnnc2SCC(N)=O)c(C)c1 | -5%
CCOC(=O)N1CCN(C(=O)c2cccc(OC)c2OC)CC1 | -10%
CC1(C)Oc2ccc(C(=O)N3CCCCC3)cc2N(CC(=O)NCc2ccccc2)C1=O | -11%
Cc1cccc(C)c1NC(=O)C(=O)NCc1ccccn1 | -2%
O=C1C=C(NC2=CC3OC(c4ccccc4)OCC3OC2=O)CCC1 (stereo not given) | -10%
O=C(Cn1cc(C(F)(F)F)ccc1=O)Nc1cc(S(=O)(=O)N2CCOCC2)ccc1Cl | -8%
C#CCOCCOCCOCCNc1nc(N2CCN(C(=O)[C@H](C(C)C)n3cc(CCO)nn3)CC2)nc(N2CCN(C(=O)[C@H]([C@@H](C)CC)n3cc(CCCN=C(N)N)nn3)CC2)n1 | -14%
COc1ccc(OC)c(C(=O)c2ccc(C(=O)O)cc2)c1 | -10%
CCSc1nc2c(cnn2-c2ccc(C)cc2)c(=O)[nH]1 | -6%
CC(=O)Oc1ccc(C(=O)Cc2ccccn2)c(O)c1 | -8%
CCn1c(SCC(=O)Nc2cccc(C)c2)nc2c(c1=O)SC(C)C2 (stereo not given) | -22%
CCN(CC)S(=O)(=O)c1ccc2c3c(cccc13)C(=O)S2 | ?
O=C(COC(=O)/C=C/c1ccc(OC(F)F)cc1)Nc1ccc(S(=O)(=O)N2CCCC2)cc1 | -7%
O=C(CCN1C(=O)C2C3C=CC(C3)C2C1=O)Nc1c(F)cc(F)cc1Br (stereo not given) | -10%
COCC(=O)Nc1nnc(Cc2ccc(OC)c(OC)c2)s1 | -11%
CC(OC(=O)c1cccs1)C(=O)NCc1ccc2c(c1)OCO2 (stereo not given) | 28µM*
C=CCn1c(C(C)NC(=O)CC)nc2ccccc21 (stereo not given) | -1%
CC1(C)C(C=C(Cl)Cl)C1C(=O)Nc1ccc([N+](=O)[O-])cc1 (stereo not given) | -21%
COc1ccc(NC(=O)CN2C(=O)CC(C)(C)S(=O)(=O)c3ccccc32)cc1 | -6%
S=c1[nH]nc2c3c4c(sc3ncn12)CCCC4 | 20µM*
C[C@@]12CCC(=O)C=C1CC[C@H]1C2[C@@H](O)C[C@]2(C)[C@@H]1CC[C@@]2(O)C(=O)COC(=O)C1CCCC1 (stereo not given in full) | 3%
CCOC(=O)c1c(C)[nH]c(C(=O)CN2CC(C)OC(C)C2)c1C (stereo not given) | -4%
NNS(=O)(=O)c1cc(C(=O)O)cc(C(=O)O)c1 | -5%
N#Cc1c(SCC(=O)Nc2nccs2)nc2c(c1-c1ccco1)CCCC2 | -18%
CCCCN1C(=O)c2ccc(C(=O)Nc3cccnc3)cc2C1=O | -7%
Cc1nc2ccccc2n1CC(=O)N/N=C\C=C\c1ccccc1 | ?
COC(=O)C1=C(C(=O)OC)[C@@H]2N(C)c3ccc(OC)cc3[C@@]23C[C@@H](C(=O)OC)N(C(=O)COCc2ccccc2)C3=N1 | -9%
O=C(Nc1ccccc1N(C(=O)c1ccco1)S(=O)(=O)c1cccs1)c1ccco1 | -4%
CC(C)CC(NS(=O)(=O)c1ccccc1)C(=O)O (stereo not given) | -1%
NC[C@H]1O[C@H](O[C@H]2[C@H](O)[C@@H](O[C@H]3O[C@H](CO)[C@@H](O)[C@H](N)[C@H]3O)[C@H](N)C[C@@H]2N)[C@H](N)C[C@@H]1O | -11%
COCCNC(=O)C(c1ccc(C)o1)N(CC1CCCO1)C(=O)Cn1nnc2ccccc21 (stereo not given) | -4%
CN(C)S(=O)(=O)c1ccc(C(=O)NCc2cccs2)cc1 | -4%
CCOc1cc(NC(=S)Nc2cccc(OC)c2)c(OCC)cc1NC(=O)C(C)C | -12%
O=C(O)CS(=O)(=O)c1ccc(Oc2ccc(S(=O)(=O)CC(=O)O)cc2)cc1 | 0%
CCOC(=O)Cn1c(-c2ccc(Cl)nc2)nc2ccccc21 | ?
COc1ccc(C2OCC3(CO2)SC(N)=NC3=O)cc1 (stereo not given) | -3%
CCOC(=O)N1CCN(S(=O)(=O)c2ccc3c(c2)SC(C)C(=O)N3)CC1 (stereo not given) | -17%
c1ccc2c(CNc3ccc(CNc4ncn[nH]4)cc3)cccc2c1 | -22%
CN(C(=O)c1c(Cl)nc2sccn12)C1CCCCC1 | -15%
CCOc1cc(Cl)c(NC(C)=O)cc1OCC | -9%
CCCC1(C(=O)O)NC(c2ccc(OC)cc2O)C2C(=O)N(c3ccc(OC)cc3)C(=O)C21 (stereo not given) | -8%
COC(=O)c1nc(NC(=O)c2ccc(Cl)cc2)n[nH]1 | -20%
CCc1ccc(-c2cc(C(=O)Nc3ccc(S(=O)(=O)NC(C)=O)cc3)c3ccccc3n2)cc1 | ?
CCCCCC(=O)/C=C/C=C\CCCCCCCC(=O)O | -3%
Cc1csc(SCC(=O)Nc2cccc3nsnc23)n1 | -20%
CS(=O)(=O)Nc1ccc(C(=O)NCCC2=CCCCC2)cc1 | -5%
O=C(CSc1nnc(COc2ccccc2)o1)c1ccccc1 | ?
Cc1ccc(NC(=O)COC(=O)/C=C/c2cccs2)c(C)c1 | -23%
CC(C)C(=O)Nc1ncc(C(F)(F)F)cc1Cl | -6%
CCOC(=O)C1=C(c2ccccc2)NC(=O)NC1c1ccc(OCC#N)c(OC)c1 (stereo not given) | -11%

Other entries.
SMILES | HPGD block
COC(=O)c1cc2ccsc2n1Cc1cccc(F)c1 | -13%
NC(=[SH+])N=N/C=C1/C=CC=CN1.O=S(=O)(O)O.[Fe] | -11%
Cc1cccc(C(=O)NC(=S)NNC(=O)COc2c(C)cccc2C)c1 | -4%
COc1ccc(-c2sccc2C(C)C(=O)O)cc1 (stereo not given) | -10%
CC1CCN(c2c(NCc3ccc(C(=O)NCc4cccnc4)cc3)c(=O)c2=O)CC1 | ?
CC1(C)Cc2ccccc2C(=NCCCC(=O)O)N1 | -9%
CCOC(=O)C1CCCN(c2cc(C)nc3cc(-c4ccc(F)cc4)nn23)C1 (stereo not given) | -11%
CCn1nnc(C(=O)O)c1C(=O)O | -1%
N#Cc1c(NC(=O)CN2CCN(S(=O)(=O)c3ccc4c(c3)OCCO4)CC2)sc2c1CCC2 | -2%
O=S(=O)(NC1CCCCC1)c1ccc(-c2csnn2)s1 | 14µM*
Cc1cc(NC(=O)c2cc(-c3cccs3)nc3ccccc23)no1 | ?
CCOc1c2ccc(C(=O)NCc3ccc(C(F)(F)F)cc3C(F)(F)F)cc2nn1C | ?
Cc1ccc(NC(=O)NC2C(NC(=O)Nc3ccc(C)cc3)N(C)C(=O)N2C)cc1 (stereo not given) | -3%
CCCCOC(=O)n1c(=O)oc2cc(S(=O)(=O)N3CCCCC3)ccc21 | -12%
CCOc1ccc2c(c1)C(c1ccc(C)cc1)=NNC(c1ccc(C)cc1)=N2 | -7%
O=C(N/N=C\c1ccco1)c1cncc(Br)c1 | -27%

Only part of the results is shown; rates above refer to the full screens.
